D2 ag = agonists of human D2 dopamine receptor (beta-arrestin). P14416. DiscoveRx PathHunter D2 beta-arrestin, luminescence, 90 min; 100% = 57 uM dopamine signal. activation, % (concentration not given with the values). 360,000 compounds, 0.084% hits. AID 624465; in the data active = activation above about 40%; inconclusive = about 15% to 40%; inactive = below about 15%; also: the text of the record calls up to 30% inactive
Target sequence (P14416 whole entry, looked up): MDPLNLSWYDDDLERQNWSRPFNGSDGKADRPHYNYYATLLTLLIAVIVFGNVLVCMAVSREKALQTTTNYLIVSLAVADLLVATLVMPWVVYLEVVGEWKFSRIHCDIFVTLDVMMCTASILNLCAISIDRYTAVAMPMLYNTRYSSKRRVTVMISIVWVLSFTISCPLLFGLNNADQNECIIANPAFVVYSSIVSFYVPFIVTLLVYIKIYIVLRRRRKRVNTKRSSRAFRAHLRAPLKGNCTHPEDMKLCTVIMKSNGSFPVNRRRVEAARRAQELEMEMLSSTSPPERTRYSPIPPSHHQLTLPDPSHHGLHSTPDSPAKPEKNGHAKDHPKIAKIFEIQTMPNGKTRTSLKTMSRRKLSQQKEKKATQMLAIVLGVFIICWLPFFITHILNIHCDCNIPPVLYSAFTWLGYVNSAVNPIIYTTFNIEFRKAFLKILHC
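Agonist mode: compounds alone added to overnight-plated D2 PathHunter cells for 90 min at 37 C, with 57 uM final dopamine (EC100) defining full response. Beta-arrestin recruitment detected by chemiluminescent reagent, read after 1 h at ambient temperature.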
PINK1 modulator = PINK1 expression modulation | AID 624263 | Potency, µM (top dose mostly 76.6 µM), for the others: at the highest dose activation (PINK1 increase), most hits filed as activators | 410,000 compounds, 0.2% hits | PINK1 immunofluorescence, high-content cytometry, 24 h; active = well fitted activation curve with a large enough effect; inconclusive = small, poorly fitted or top-dose-only effect; inactive = flat fitted curve, though single readings scatter; cell line not stated here;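 also: potency is read from the fitted curve at half-maximal effect; % of control where 0% means no effect; nearly all actives have a fitted effect of over 65% in size; a mitochondrial uncoupler was the plate control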
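Compound titrations (5 concentrations, 24 h) on a stable cell line; DMSO and CCCP controls. Endpoint: fixed-cell PINK1 immunofluorescence with mitochondrial, cell and nuclear markers, scanned by microplate cytometer.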
ClpP mod = qHTS Assay for Activators of ClpP | ATP-dependent Clp protease proteolytic subunit (Bacillus subtilis (strain 168)), P80244 | purified B. subtilis ClpP, FRET peptide cleavage, 20 min | Potency, µM (doses to about 57.5 µM), without a hit: at the top dose activity change, negative = active | 340,000 compounds, 1.9% hits | AID 651965, 2013; active = well fitted falling curve with a large enough effect; inconclusive = small, poorly fitted or top-dose-only effect; inactive = no such curve, though single readings can be large or run the other way; also: potency is read from the fitted curve at half-maximal effect; the source files actives as falling curves though it sought activators and does not explain the sign; nearly all actives have a fitted effect of over 65% in size; many hits overshoot -100%
Target sequence (P80244 whole entry, looked up): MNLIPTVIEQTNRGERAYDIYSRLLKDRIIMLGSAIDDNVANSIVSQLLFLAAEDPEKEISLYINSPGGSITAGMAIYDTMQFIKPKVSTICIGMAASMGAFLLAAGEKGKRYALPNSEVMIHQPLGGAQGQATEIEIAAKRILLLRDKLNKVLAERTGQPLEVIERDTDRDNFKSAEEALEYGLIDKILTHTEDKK
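ClpP 10 microg/mL final, pH 8 Tris/KCl buffer with BSA, glycerol, Tween-20; compound pinned in; FRET-FV substrate; RT 20 min; Ex320/Em430; ΔFRET vs ADEP 5.8 microM, DMSO, no enzyme.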
gsp antagonist = antagonists of gsp mutant (McCune-Albright syndrome). gsp-mutant cells, cAMP HTRF, 30 min; control for the full effect not named in the record. Potency, µM (doses to about 76.9 µM), without a hit: at the top dose activity change, negative = inhibition, most hits filed as inhibitors. 340,000 compounds, 0.4% hits; active = falling curve of any shape with a large fitted effect; inconclusive = falling curve, mostly with a smaller effect; inactive = flat or rising curve; cell line not stated here;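 also: intracellular cAMP measured with PDE inhibitor Ro 20-1724 present during compound exposure; potency is read from the fitted curve at half-maximal effect; % is scaled to controls: 0 for no effect and ±100 for the full control effect; nearly all actives have a fitted effect of over 65% in size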
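HTRF cAMP measurement after 30 min RT detection following 30 min, 37C compound treatment alongside […] (added as 300 uM solution) in G418-selected cells seeded at 2000/well and grown 16–24 h.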
gsp agonist = gsp mutant agonism | gsp mutant cells, cAMP HTRF, 30 min; control for the full effect not named in the record | Potency, µM (series often up to 76.9 µM), for the others: top-dose activation (cAMP increase), actives largely listed as activators | 340,000 compounds, 0.13% hits | AID 624287; active = well fitted activation curve with a large enough effect; inconclusive = small, poorly fitted or top-dose-only effect, or another doubt; inactive = no such curve, though single readings can be large or run the other way; cell line not stated here;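 also: phosphodiesterase inhibitor Ro 20-1724 added with compounds to block cAMP breakdown; potency is read from the fitted curve at half-maximal effect; nearly all actives have a fitted effect of over 60% in size; about a fifth of the inactives were tested at one dose only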
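Cells stably selected in G418 were plated at 2000/well, grown 16-24 hr, then given compounds in DMSO with the PDE inhibitor […] (300 uM solution added) for 30 min at 37C; cAMP was read by HTRF.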
Menin-MLL FL inh = inhibitors of human menin-MLL interaction, wild-type MLL peptide; FP activity change, % at 61.4 µM; Fluorescence polarization, fluorescein-MLL peptide displacement from menin; 290,000 tested, under 10 active; AID 1766; inconclusive = falling polarisation curve, or a change in total fluorescence; inactive = total fluorescence flat and polarisation flat or rising; no compound was filed as active; the % refers to the polarisation; negative = inhibition;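 also: % of control where 0% means no effect; inhibitors lower the polarisation; unlabelled MLL peptide was the positive control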
Sfp inh = blocks B. subtilis Sfp PPTase activity | Q9F4F7 | Biochemical Sfp PPTase activity, qHTS | Potency, µM, inactives show max response, negative = inhibition, actives largely listed as inhibitors | 310,000 compounds, 3.5% hits; active = well fitted inhibition curve with a large enough effect; inconclusive = small, poorly fitted or top-dose-only effect, or another doubt; inactive = no such curve, though single readings can be large or run the other way;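 also: the enzyme is Sfp with the accession as filed and its product quenches rhodamine fluorescence; potency is read from the fitted curve at half-maximal effect; 0% = enzyme reaction without inhibitor and -100% = no enzyme wells; top concentration of the series not given in the record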
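Buffer: 50 mM Hepes-Na pH 7.6, 10 mM MgCl2, 0.01% Nonidet P-40, 0.01% BSA. Enzyme 15 nM, pre-exposed to compound 15 min; substrates then added and fluorescence change tracked over 30 min.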
* hit, by the source's call; ? = inconclusive; · = not tested or not shown; & = joins results of further samples; [ ] = remark or other dose.

SMILES	D2 ag	PINK1 modulator	ClpP mod	gsp antagonist	gsp agonist	Menin-MLL FL inh	Sfp inh
O=c1[nH]nc(Cc2ccccc2)c2ccccc12	-3.3	-3.0%	-0.2%	-4.4%	?	0.2	9.0%
Cc1cccc(N2CC(C(=O)Nc3ccc(S(=O)(=O)Nc4nccs4)cc3)CC2=O)c1C (stereo unspecified)	0.9	0.4%	·	13.0%	0.9%[15.4 µM]	·	32.3%
N#C/C(=C\c1ccc(OCc2ccccc2)cc1)C(=O)Nc1ccc(C(=O)O)cc1	-1.7	-0.5%	·	-15.5%	-2.6%[15.4 µM]	-6.0	?
C[C@H](NC(=O)Nc1cccc(Br)c1)C(=O)O	-5.3	-0.3%	·	-10.5%	-14.1%[15.4 µM]	0.9	19.8%
Cc1c(N2C(=O)CSC2c2ccco2)c(=O)n(-c2ccccc2)n1C (stereo unspecified)	-4.4	0.1%	-1.9%	4.3%	0.7%[15.4 µM]	5.3	23.8%
CC(=O)N1CCOc2ccc(S(=O)(=O)Nc3ccc(C)cn3)cc21	-0.1	-1.4%	-8.5%	10.3%	-13.0%	6.9	9.4%
COc1ccc(S(=O)(=O)N2CCCCCC2)cc1C(=O)N1CCN(c2ccc(F)cc2)CC1	9.0	1.0%	-1.5%	-16.7%	-13.5%	·	·
Cc1[nH]c(C)c2c(=O)[nH]ncc12	-0.6	0.2%	·	7.4%	10.3%	-0.8	16.0%
Cc1ccc(CNC(=O)C2CC(c3ccccc3[N+](=O)[O-])=NO2)cc1 (stereo unspecified)	2.9	0.0%	0.5%	1.9%	-33.2%[inhibitor]	1.3	6.8%
Cc1ccc(C(=O)Nc2cccc(NC(=O)c3cccs3)c2)c(C)c1	1.7	0.4%	-0.1%	-5.4%	-4.4%	-1.3	1.5%
COCCN1C(=O)C(=O)/C(=C(/O)c2cccc(OC)c2)C1c1ccc(C)o1 (stereo unspecified)	-1.6	0.1%	-2.6%	-3.4%	-24.5%	-1.2	?
O=C(CN1C(=O)NC2(CCOc3ccccc32)C1=O)c1ccc(F)c(F)c1 (stereo unspecified)	0.4	-1.9%	-2.0%	8.4%	-4.7%[15.4 µM]	·	·
COC(=O)C(Cc1ccccc1)NCC(=O)Nc1cccc(Cl)c1C (stereo unspecified)	-0.4	0.4%	1.3%	-6.7%	26.1%	3.2	16.1%
O=C(NCc1ccc2c(c1)OCO2)c1ccc(NC(=O)C2CCCO2)cc1 (stereo unspecified)	-4.5	0.9%	0.1%	8.6%	23.5%	-6.3	5.6%
COc1ccc(C(CNC(=O)C(CCSC)NC(=O)c2ccccc2Cl)N2CCCCC2)cc1 (stereo unspecified)	-3.3	0.2%	2.0%	11.3%	?	·	·
O=C(O)c1cccc(Oc2ccc([N+](=O)[O-])cc2)c1	-2.9	-0.3%	0.9%	-21.0%	-20.6%	3.4	3.9%
Cc1ccc(S(=O)(=O)N2CCCN(S(=O)(=O)c3ccc(C(F)(F)F)cc3)CC2)cc1	3.1	17.8%[38.3 µM]	0.1%	-1.2%	?	3.4	2.9%
COc1ccc(/C=N/NC(=O)c2cc(-c3ccccc3)nc3ccccc23)c(OC)c1	-3.2	4.5%	-7.1%	12.2%	-18.6%	-1.6	7.6%
CCCS(=O)(=O)NC(=O)C1(C)CCCN(C(=O)c2cccc3ccccc23)C1 (stereo unspecified)	3.2	0.9%	0.8%	·	·	·	·
CC(CCc1ccccc1)NC(=O)CCC(=O)N1CCC(C(=O)O)CC1 (stereo unspecified)	-2.6	1.6%	-0.8%	5.5%	-43.3%[inhibitor]	0.0	13.0%

Results in D2 ag, ClpP mod and Sfp inh, for four of the compounds above:
| SMILES | D2 ag | ClpP mod | Sfp inh |
| --- | --- | --- | --- |
| Cc1ccc(C(=O)Nc2cccc(NC(=O)c3cccs3)c2)c(C)c1 | 1.7 | -0.1% | 1.5% |
| COCCN1C(=O)C(=O)/C(=C(/O)c2cccc(OC)c2)C1c1ccc(C)o1 (stereo unspecified) | -1.6 | -2.6% | ? |
| O=C(CN1C(=O)NC2(CCOc3ccccc32)C1=O)c1ccc(F)c(F)c1 (stereo unspecified) | 0.4 | -2.0% | · |
| COC(=O)C(Cc1ccccc1)NCC(=O)Nc1cccc(Cl)c1C (stereo unspecified) | -0.4 | 1.3% | 16.1% |

Remaining list, next part:
SMILES	D2 ag	PINK1 modulator	ClpP mod	gsp antagonist	gsp agonist	Menin-MLL FL inh	Sfp inh
COc1cccc(-c2nnc(SCC(=O)OC(C)C)n2N)c1	0.3	-2.3%[38.3 µM]	-1.3%	-0.1%	-1.7%	-0.4	13.2%
Cc1ccc(SCc2ccc(C(=O)Nc3nccs3)o2)cc1	1.3	1.1%	-2.0%	-23.4%	2.5%	0.1	13.7%
N#Cc1ccc(C(=O)OCC(=O)Nc2cccc(S(=O)(=O)NC3=NCCC3)c2)cc1	-3.0	0.3%	0.8%	0.2%	-11.4%	·	·
CCC(c1nnnn1CCOC)N1CCN(Cc2ccccc2)CC1 (stereo unspecified)	0.4	-4.6%	-2.1%	0.3%	3.4%	5.2	6.0%
Cc1ccc(N(C(C)C(=O)Nc2c(C)n(C)n(-c3ccccc3)c2=O)S(C)(=O)=O)cc1C (stereo unspecified)	-4.7	1.5%	·	11.3%	-4.8%[15.4 µM]	0.4	22.2%
CCC1(C)C(Nc2c(C)cccc2C)=NC(=S)N1c1ccc(NC(C)=O)cc1 (stereo unspecified)	2.7	-4.1%	1.3%	9.8%	-3.4%	0.4	10.6%
O=C(Nc1ccc(Cl)cn1)c1ccccc1[N+](=O)[O-]	-4.1	2.1%	·	7.1%	7.5%[15.4 µM]	-1.6	3.8%
CCCCCCn1c(N2CCCC2)nc2c1c(=O)n(C)c(=O)n2C	5.9	2.4%	-0.4%	-10.8%	2.0%[15.4 µM]	-2.9	-14.4%
CCn1c(CNC(=O)c2ccccc2Br)nnc1SCC(=O)Nc1nncs1	-6.6	2.4%	14.1µM*	11.6%	-14.9%[15.4 µM]	1.1	-3.5%
FC(F)(F)c1cccc(Cn2nnnc2-c2ccc(Cl)cc2)c1	-1.6	4.9%[38.3 µM]	-0.7%	-0.2%	?	-1.5	-5.2%
O=C(CCC(=O)OCC(=O)c1ccc(C(F)(F)F)cc1)OCC(=O)c1ccc(C(F)(F)F)cc1	-2.5	1.9%	0.2%	1.2%	1.1%[15.4 µM]	3.2	7.9%
CCc1ccc2[nH]c(=O)c(CN(CCCN3CCOCC3)C(=O)Nc3ccccc3)cc2c1	-1.1	1.8%	-6.8%	-2.9%	-12.4%	0.0	3.5%
O=C1CC(c2ccccc2)SC(N(c2ccccc2)c2ccccc2)=N1 (stereo unspecified)	-2.7	4.6%	·	?	-28.1%[15.4 µM]	1.9	24.6%
CCn1cc(CN2CCc3c([nH]c4ccccc34)C2c2ccc(F)c(OC)c2)c(C)n1 (stereo unspecified)	-0.1	1.0%	4.1%	-12.8%	-2.3%	-5.1	-2.5%
CC(=O)Nc1ccc(S(=O)(=O)N(C)CC(=O)OCC(=O)N(C)c2ccccc2)cc1	-7.6	-1.2%	·	-5.0%	-2.2%[15.4 µM]	·	6.5%
CC(NC(=O)[C@H](C)NC(=O)[C@@H]1CSC2c3ccccc3C(=O)N21)c1ccccc1 (stereo partly specified)	2.5	0.3%	2.7%	5.0%	?	-0.1	11.0%
O=C(NC(=S)Nc1ncccn1)c1ccccc1Br	-2.7	-1.3%	·	-4.7%	-4.9%	0.4	?
CC(C)CCNC(=O)[C@@H](NC(=O)c1c(F)cccc1F)C(C)C	-1.8	0.7%	0.1%	8.6%	9.0%	5.9	2.5%
O=C(c1cccc(Cl)c1)N1CCN(Cc2ccccc2F)CC1	-0.8	1.1%	0.5%	13.0%	-28.8%	2.2	-22.6%
CCOC(=O)C(=O)Nc1cccc(C(=O)OCC)c1	-1.8	-0.8%	4.0%	2.4%	12.8%	6.8	4.7%
CCN(C(=O)CSc1nc2cc(Cl)ccc2c(=O)n1Cc1ccco1)C1CCS(=O)(=O)C1 (stereo unspecified)	-2.5	0.3%	·	?	?	-4.1	-3.2%
Cc1ccc(S(=O)(=O)N(C)CC(=O)Oc2ccc(-c3nnco3)cc2)cc1	-7.7	3.4%	1.4%	-22.4%	2.1%	·	·
C=C(C)c1ccccc1	1.3	0.3%	2.2%	6.3%	·	·	·
COc1ccc(N2CCN(CC(O)COc3c(OC)cccc3OC)CC2)cc1 (stereo unspecified)	-8.8	1.1%&0.2%	-3.2%&-12.6%	1.6%	6.8%	-0.7	-2.4%
CCCCOc1cccc(C2C(C(=O)c3ccc(C)o3)=C(O)C(=O)N2c2nnc(C)s2)c1 (stereo unspecified)	4.2	-0.5%	-7.2%	?	27.9%	?	50.1µM*
Cc1cccc([C@@H]2[C@@H]3C(=O)N(Cc4ccccc4)C(=O)[C@@H]3[C@]3(CC(C)C)C(=O)N(c4cccc(Cl)c4)C(=O)N23)c1	-4.8	0.0%	2.5%	5.0%	21.2%	0.3	16.3%
Cc1ccc2[nH]c(=O)c(CN(CC3CCCO3)S(=O)(=O)c3cccc4nsnc34)cc2c1 (stereo unspecified)	-1.0	-1.5%[38.3 µM]	1.5%	-10.5%	4.4%	4.8	0.7%
NS(=O)(=O)c1ccc(-c2ccc(/C=C3\SC(=S)N(C4CCS(=O)(=O)C4)C3=O)o2)cc1 (stereo unspecified)	-2.4	0.1%	-0.8%	-17.3%	0.3%	?	?
CN(C)CCC(=O)N1c2ccccc2Sc2ccc(C(F)(F)F)cc21	-2.0	3.5%	0.5%	11.2%	8.8%	-1.5	9.8%
COc1ccc(OC)c(NC(=O)CSc2nc(N)c(-c3ccccc3)c(=O)[nH]2)c1	1.1	-0.6%	-1.9%	4.1%	-4.2%	-0.9	12.3%
CCOC(=O)CSc1nnc(Cc2ccc(OC)cc2)n1-c1ccccc1	-0.9	-0.2%	1.5%	-15.2%	14.8%	8.3	1.7%
Cn1c(NCCc2ccncc2)nc2cc(-c3ccsc3)sc2c1=O	-4.1	0.5%	-15.9%	·	·	·	·
